# Screening data: PubChem, several laboratories
# Beta2AR agonist – beta2AR agonists driving receptor internalization, primary screen, cell-based, FAP fluorogen, flow cytometry; Beta-2 adrenergic receptor (Homo sapiens), P07550; Am2.2-beta2AR cells; reference of the scale not given here; response, % (test concentration not listed); 340,000 compounds, 0.43% hits; AID 504454, 2011;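 active = response above a set limit, near 3 SD of response in nonfluorescent compounds, cut at about 42% in these data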;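 also: stock transfer was 100 nL into about 11 µL; a reference agonist was the positive control; negative values mostly stem from fluorescent compounds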
# ALR inh – inhibitors of human ALR sulfhydryl oxidase, primary screen, biochemical, H2O2 detection, HRP-luminol luminescence, single point; purified ALR, DTT oxidation; inhibition, % (concentration not given with the values); 290,000 compounds, 3.8% hits;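 active = mean and each replicate at 75% or more; inconclusive = only one of the two met; inactive = neither met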;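 also: stock transfer was 7.5 nL into about 7.5 µL; 0% = neutral wells and 100% = wells with inactivated enzyme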
# Ecoli rRNA inh – reduced GFP signal of wild-type E. coli, primary screen, bacterial rRNA inhibitor project, GFP/RFP fluorescence, OD600, single point; E. coli WT GFP vs humanized-ribosome RFP mutants, 24 h; stronger effect = lower value; DMSO median 0, no signal -100; GFP signal change (wild-type ribosome), % (test concentration not listed); 350,000 compounds, 1.6% hits;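 active = significant combined selectivity score with lowered wild-type GFP, culture density cut under 30%, mutant RFP and density less affected; inactive = any of these conditions unmet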; also: one replicate is shown; some compounds called inactive have numbers as strong as hits
# A1 inh – caspase 3/7 activation in MEF A1-2A-BIM cells, primary screen, A1 inhibitor project, cell-based, luminescence, HTS | Caspase-Glo 3/7 luminescence, 3 h; percent of clofoctol response, vehicle zero | caspase activation, % (test concentration not listed) | 330,000 compounds, 0.066% hits;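 active = over half of replicate activation scores above 10%, or exactly half above 10 with the replicate mean above 10; inconclusive = replicate mean below 10 yet half the replicates above 10; inactive = over half of replicates below 10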;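 also: wells of about 30 µL received 50 nL stock; many hits fall short of the cut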
# LANA-H2A inh – blockers of LANA interaction with H2A/H2B – biochemical, FP readout, HTS, primary screen; cell-free LANA-H2A/H2B peptide, fluorescence polarization; inhibition, % (no concentration beside the values); 320,000 compounds, 0.6% hits; AID 2629, 2010; in the data active = inhibition mostly above about 10%, no sharp cut-off; inactive = mostly below about 6.7%;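 also: stock transfer was 7.5 nL into about 10 µL; 0% = median of vehicle wells and 100% = median of positive control wells; one replicate is shown; the record names a cut of 25% in any replicate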
# Target sequence (Q9QR71 whole entry, looked up): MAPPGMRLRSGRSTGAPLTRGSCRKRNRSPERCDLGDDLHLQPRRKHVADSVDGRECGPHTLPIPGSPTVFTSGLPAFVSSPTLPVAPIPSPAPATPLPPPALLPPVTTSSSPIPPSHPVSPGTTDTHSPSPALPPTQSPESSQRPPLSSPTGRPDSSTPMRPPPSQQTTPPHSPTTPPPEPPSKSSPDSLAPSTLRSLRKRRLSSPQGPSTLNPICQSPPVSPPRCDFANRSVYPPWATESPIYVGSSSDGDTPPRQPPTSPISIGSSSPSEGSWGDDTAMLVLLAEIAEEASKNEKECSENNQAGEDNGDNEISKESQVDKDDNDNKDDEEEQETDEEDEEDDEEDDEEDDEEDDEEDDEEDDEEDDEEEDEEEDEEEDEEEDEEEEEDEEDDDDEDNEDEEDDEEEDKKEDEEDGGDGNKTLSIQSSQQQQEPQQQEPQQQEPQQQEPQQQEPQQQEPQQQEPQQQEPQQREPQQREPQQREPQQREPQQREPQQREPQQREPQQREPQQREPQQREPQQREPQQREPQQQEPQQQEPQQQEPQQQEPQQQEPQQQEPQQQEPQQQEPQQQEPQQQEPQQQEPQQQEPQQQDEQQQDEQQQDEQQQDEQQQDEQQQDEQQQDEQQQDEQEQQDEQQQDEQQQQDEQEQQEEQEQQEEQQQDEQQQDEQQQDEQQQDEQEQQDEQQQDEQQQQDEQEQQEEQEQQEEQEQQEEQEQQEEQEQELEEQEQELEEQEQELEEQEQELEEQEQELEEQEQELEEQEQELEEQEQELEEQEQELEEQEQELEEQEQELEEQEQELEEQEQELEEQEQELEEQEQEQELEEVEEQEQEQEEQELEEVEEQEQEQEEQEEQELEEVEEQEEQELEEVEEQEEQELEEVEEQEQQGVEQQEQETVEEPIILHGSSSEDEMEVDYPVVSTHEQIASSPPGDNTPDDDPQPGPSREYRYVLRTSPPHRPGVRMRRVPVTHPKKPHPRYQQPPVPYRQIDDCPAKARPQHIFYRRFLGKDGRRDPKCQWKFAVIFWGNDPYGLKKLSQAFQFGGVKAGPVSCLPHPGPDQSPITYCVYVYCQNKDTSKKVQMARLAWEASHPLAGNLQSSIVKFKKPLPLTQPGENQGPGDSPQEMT
# Beta cell apopt – inhibitors of cytokine-induced beta cell apoptosis, primary screen, luminescence | INS-1E cytokine-induced death, ATP luminescence, 48 h; percent of positive-control rescue, neutral wells zero | protection from apoptosis, % (concentration not given with the values) | 300,000 compounds, 0.8% hits | AID 435005, 2010;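 active = all replicates at 75% or more, or half of them and the mean; inconclusive = half reach 75% but not the mean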;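 also: 0% = cytokine-treated negative control wells and 100% = positive control rescue; higher means more ATP so stronger rescue from cytokine killing; wells of about 40 µL received 100 nL stock; the first replicate is given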
# T cruzi inh – inhibitors of intracellular T. cruzi growth, primary screen, luminescence, NIH3T3 host cells | inhibition, % (concentration not given with the values) | AID 1885, 2009 | 300,000 compounds, 1.4% hits | T. cruzi beta-gal in NIH3T3, 90 h;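 active = mean inhibition across valid replicates above about 55%, limit read from the data; inconclusive = mean below that limit but half or more replicates reach it; inactive = mean below it, under half of replicates reach it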;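 also: signal also drops with host cell toxicity which is not excluded here; 0% = plate median of DMSO wells and 100% = zero luminescence signal; higher percent means less beta-gal luminescence so fewer parasites; stock transfer was 50 nL into about 50 µL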
# Calb FLC – C. albicans growth inhibition with fluconazole, primary screen, CaCi-2 strain, Alamar Blue fluorescence; growth inhibition, % (concentration not given with the values); C. albicans CaCi-2 (fluconazole-resistant clinical isolate) + fluconazole, 48 h; 300,000 compounds, 0.57% hits;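 active = most replicates above 75%; inconclusive = exactly half above 75%; inactive = most below 75%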;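 also: all wells also contain fluconazole at 8 µg/ml as a sub-toxic cotreatment; 0% = median of DMSO wells and 100% = median of geldanamycin control wells; wells of about 8 µL received 7.5 nL stock; the first replicate is given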
# Ecoli rRNA inh OD600 – second read-out of Ecoli rRNA inh, no call of its own (marks repeat the call); OD600 change, %; measured here: OD600 growth;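 optical density of the mix in the first replicate; 0 = DMSO median and -100 = no signal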
# Ecoli rRNA inh RFP – also measured in Ecoli rRNA inh; calls as there; RFP signal change, %; measured here: RFP humanized mutant strains;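 first replicate; 0 = DMSO median and -100 = no signal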
# Starred values were filed as active, the others as inactive; u = inconclusive; x = no result given. A portion of the library; the hit share may differ from the screen's.
SMILES,Beta2AR agonist,ALR inh,Ecoli rRNA inh,Ecoli rRNA inh OD600,Ecoli rRNA inh RFP,A1 inh,LANA-H2A inh,Beta cell apopt,T cruzi inh,Calb FLC
CCCCOc1ccc(/C=C/C(=O)NCCc2nc3ccccc3[nH]2)cc1,3.8,-10.8,2.0,8.3,-1.8,-0.3,0.4,7.1,21.8,-2.4
CC(C)Oc1ccccc1NC(=O)CSc1nc2ccccc2c(=O)n1C,12.0,1.7,-25.0,-36.3,-2.5,0.0,3.8,x,-5.4,-2.0
O=C(c1cccnc1)N1CCC(Oc2ccc(C(=O)N3CCCCO3)cc2)CC1,-2.6,-10.8,7.8,4.9,-0.4,-0.4,-3.4,2.8,-15.0,-4.5
c1ccc2[nH]c(NC3=NCCC3)nc2c1,3.0,-1.5,x,x,x,0.2,1.0,5.4,-18.8,1.1
CCOC(=O)NC(=O)CSc1ccc(C)cc1C,-5.0,-3.9,3.9,-3.9,-6.4,-0.8,7.3,-12.4,-11.4,-6.7
Cc1nc(SCc2nc3ccc([N+](=O)[O-])cc3[nH]2)c2oc3ccccc3c2n1,20.1,x,-6.1,1.7,-1.7,1.1,3.7,6.9,x,x
O=C(NCCC1CCCCN1S(=O)(=O)c1ccc(F)cc1)C(=O)NCCN1CCOCC1 (centres undefined),-0.1,-2.4,4.4,12.3,-0.6,-0.1,1.9,x,-6.8,6.4
Cc1ccc(S(=O)(=O)N(CC(=O)N/N=C/c2ccco2)Cc2ccccc2)cc1,-8.8,0.3,x,x,x,0.5,4.0,-2.5,-3.1,-1.3
C[C@]1(CO)CCC[C@@]2(C)C1CC[C@@H](CO)[C@@H]2CCc1ccoc1 (some centres undefined),-6.6,x,-34.0,-41.0,-8.5,0.7,3.5,-4.7,-10.6,-5.3
NC(=O)C1CC(=O)N(c2ccc(OCC(=O)NCc3ccccc3)cc2)C1 (centres undefined),-1.4,x,6.8,13.2,-0.5,0.9,-4.9,0.7,0.3,-1.7
CCOc1ccc(C(=O)Nc2ccccc2CC)cc1[N+](=O)[O-],-4.2,-2.8,-5.1,0.9,-2.6,0.0,-2.7,2.7,7.2,-2.2
CCN1/C(=C2\C(=O)N(C)C(=S)N2c2ccccc2)C=Cc2ccccc21,-8.5,98.3*,3.6,7.4,-5.1,-1.0,2.1,6.8,3.1,2.0
NC(N)=N/N=C/c1ccc(OCc2ccccc2)cc1,24.8,-1.5,-43.0,-49.1,-5.6,-3.4,-1.3,81.8*,71.4*,-11.7
Cc1ccc(C2c3c(oc4ccccc4c3=O)C(=O)N2CCCN2CCOCC2)o1 (centres undefined),-3.6,6.2,x,x,x,-0.6,-3.9,0.5,0.5,-10.3
Cc1ccc(C)c(CN2C(=O)C3CCCN3c3ccc(S(=O)(=O)N4CCOCC4)cc32)c1 (centres undefined),x,-9.9,x,x,x,0.6,-2.7,-3.2,19.5,u
CNC(=O)NC(=S)NC(=O)c1ccccc1Cl,-0.3,8.6,29.7,11.7,1.4,1.6,2.3,x,-0.5,5.0
COc1ccc(C(=O)N2CCC2)cc1S(=O)(=O)NCc1ccc(Cl)cc1,-11.8,-1.6,-0.1,6.2,-3.4,-1.0,2.0,-8.9,x,x
Cc1ccc(/C=C2/Sc3ccc(C(=O)N4CCN(c5ccccn5)CC4)cc3NC2=O)cc1,33.6,-5.9,8.3,-5.1,3.6,0.6,0.8,-7.0,10.0,-2.6
CC(=O)c1c(C)n([O-])c2ccccc2[n+]1=O,1.0,-16.5,x,x,x,0.6,0.3,2.9,-4.1,16.0
COC(=O)C1(C)Nc2ccccc2C(=O)N1c1ccccc1C (centres undefined),6.2,-19.6,10.6,6.3,-2.8,0.5,0.5,2.5,-7.4,0.8
Cc1ccc(NC(=O)c2ccc(Br)o2)cc1S(=O)(=O)N(C)C,-3.1,3.8,-21.4*,-12.1*,-4.7*,0.8,-3.0,-0.1,-13.6,22.1
COC(=O)c1sccc1NC(=O)Nc1ccc(OC)c(OC)c1,-4.3,-3.5,12.3,8.6,3.5,-9.2,-2.4,-2.3,-12.3,-0.8
Cc1ccc2nc(/C(C#N)=C\c3ccc(Oc4ccc([N+](=O)[O-])cn4)cc3)[nH]c2c1,20.3,11.8,10.2,3.2,4.3,-0.4,4.0,4.5,x,x
CCN(CC)CCCN1C(=O)C(O)=C(C(=O)c2sc(C)nc2C)C1c1ccco1 (centres undefined),6.5,2.3,x,x,x,0.6,-0.1,-5.7,-8.7,-18.7
CC1NC(=O)NC1CCCCCC(=O)Nc1ccc(F)c(Cl)c1 (centres undefined),0.0,-8.7,-17.8,-40.3,-8.2,0.6,4.8,-3.6,-8.0,-15.4

# Remaining list, next part.
SMILES,Beta2AR agonist,ALR inh,Ecoli rRNA inh,Ecoli rRNA inh OD600,Ecoli rRNA inh RFP,A1 inh,LANA-H2A inh,Beta cell apopt,T cruzi inh,Calb FLC
CC(C)Cc1cc(CN2CCC(CO)(Cc3ccccc3)CC2)[nH]n1,-5.5,-2.7,4.0,-4.1,-5.2,-0.5,-2.8,3.8,18.1,-9.4
Clc1ccc(/C=N/Nc2nn[nH]n2)cc1,8.4,x,x,x,x,0.4,-3.3,x,-10.4,17.2
Cc1ccccc1Cn1ccc(=NCc2ccccc2)cc1,x,-4.3,-6.5,1.8,-1.0,-0.9,0.1,102.6*,31.0,-20.7
CCSCc1nnc(SCC(=O)Nc2nc3ccccc3s2)n1C,6.8,-0.9,x,x,x,0.1,-3.1,3.6,9.0,-5.6
CCOC(=O)N1CCN(C(=O)c2ccccc2N(C)S(C)(=O)=O)CC1,-12.5,-50.9,3.5,6.2,-0.7,0.0,-1.0,-4.2,6.0,3.9
c1csc(-c2nnc(Cc3cccc4ccccc34)o2)c1,-6.9,-0.5,x,x,x,0.7,-0.6,-4.0,13.0,27.5
O=C(COC(=O)Cn1cnc2ccccc21)NCCC1=CCCCC1,-5.2,-5.8,x,x,x,0.5,4.8,3.7,-11.7,x
Cc1ccc(S(=O)(=O)N2CCCC2CNC(=O)C(=O)NCCN2CCOCC2)cc1 (centres undefined),-4.1,0.0,6.6,10.9,-1.4,0.5,4.1,0.5,-8.7,2.8
CC(C)CNC(=O)COc1ccc2c3c(c(=O)oc2c1)CCC3,-5.1,2.1,-5.5,9.7,0.8,0.3,5.1,-0.7,-6.1,10.7
Cc1cc(=S)cc(C)n1CCO,-4.0,-0.3,x,x,x,0.6,-4.4,-1.9,7.8,23.5
COc1cc(CNc2ccc3[nH]c(=O)[nH]c3c2)cc(Br)c1OCc1ccc(F)cc1,-8.1,19.2,1.5,3.0,4.4,0.9,1.4,-7.0,8.5,-1.9
CCNc1c(NS(=O)(=O)c2ccc(Br)s2)c(=O)oc2ccccc12,-10.5,-7.2,5.1,5.7,-2.4,0.6,6.3,8.5,-1.9,-4.0
CCCC[C@@H]1CNC(=O)C(=O)N1CCCc1cc(OC)c(OC)c(OC)c1,2.9,x,3.7,5.1,-1.7,1.8,3.2,-2.0,-13.5,7.2
Cc1ccccc1OCc1nnc(SCC(=O)Nc2ccc3nc(SCC(=O)NC(C)(C)C)sc3c2)n1C,5.8,-5.0,x,x,x,0.6,0.5,-4.9,21.4,-5.4
CCOc1ccc(NC(=O)CN(C)c2ccc(S(=O)(=O)N3CCOCC3)cn2)cc1OCC,-3.7,-16.5,x,x,x,0.0,-5.7,-1.7,5.9,-4.1
Cc1ccc(S(=O)(=O)Nc2cccc(-n3cnnn3)c2)cc1C,6.2,2.9,-8.8,-10.2,3.3,-0.6,5.5,-4.3,-1.9,10.0
CCN1CCCC1CNc1ncnc2c1[nH]c1ccc(F)cc12 (centres undefined),4.3,-1.1,x,x,x,0.0,5.4,2.4,11.0,2.4
CCCn1nc([N+](=O)[O-])c(C(C#N)c2nc3ccccc3o2)c(Cl)c1=O (centres undefined),0.3,x,x,x,x,0.2,-6.6,-0.2,-15.5,21.9
COc1ccc(Cn2c(CO)cnc2SCC(=O)Nc2cc(C)on2)cc1,5.9,0.6,-9.8,-9.7,-0.3,-0.5,1.8,-13.2,-5.1,-2.5
O=[N+]([O-])c1ccc2c(c1)C(O)n1nc(-c3ccc(Cl)cc3Cl)nc1S2 (centres undefined),0.6,x,x,x,x,-0.2,5.1,-0.4,-19.9,-1.9
O=C(CCS(=O)(=O)c1ccc(Cl)cc1)Nc1nnc(-c2cccs2)o1,-1.6,-1.1,6.7,5.0,-2.8,0.7,-7.2,x,-2.4,4.2
COc1ccccc1N1C(=O)c2ccccc2NC1c1cc(OC)c(OC)c(OC)c1 (centres undefined),20.6,-22.1,-0.2,0.6,-2.1,0.7,0.8,1.8,1.0,0.5
Cc1ccc(N(CC(O)COCc2ccco2)S(=O)(=O)c2ccc(C)cc2)cc1 (centres undefined),9.4,-9.3,x,x,x,0.0,6.9,-6.3,-0.3,3.4
CN(C)C(CNC(=O)c1ccc(-c2ccccc2)cc1)c1ccccc1 (centres undefined),7.0,-3.0,-7.6,-17.2,0.3,-0.3,-2.0,2.4,-2.2,5.6
CC(=O)c1ccc(-n2cc(-c3ccc(C(C)(C)C)cc3)[n+]3c2SCCC3)cc1,-4.0,-0.9,-54.5,-79.3,-20.0,-0.9,-1.7,50.5,67.7*,100.8*

# Carrying on.
SMILES,Beta2AR agonist,ALR inh,Ecoli rRNA inh,Ecoli rRNA inh OD600,Ecoli rRNA inh RFP,A1 inh,LANA-H2A inh,Beta cell apopt,T cruzi inh,Calb FLC
COc1ccc(-c2cc(CS(=O)(=O)c3ccccc3)on2)cc1,-0.7,-2.5,-20.5,-19.1,-1.5,-0.5,-1.4,-5.8,-8.0,-6.7
O=C(O)c1ccc(/C=N/N2CCN(Cc3cccc4ccccc34)CC2)cc1,1.9,-2.9,21.3,16.0,4.5,-0.3,2.6,2.4,-19.5,27.6
CC(C)N1CCN(Cc2cc3ccccc3[nH]2)CC1CCO (centres undefined),8.4,-2.3,4.5,4.6,1.3,0.8,-1.5,-7.1,-0.6,-4.2
Cc1ccc(S(=O)(=O)CNC(=S)c2cccc(C)c2)cc1,-7.3,x,x,x,x,0.2,-12.6,-4.1,-25.6,15.5
CCN(CC)CCCC(C)NC(=O)c1ccc(C(F)(F)F)cc1 (centres undefined),0.2,-2.3,15.1,10.1,2.6,-0.1,-1.9,-5.4,32.4,-7.9
CCc1nnc(NC(=O)CCn2cnc3ccccc3c2=O)s1,-14.0,-8.6,3.9,0.9,-3.3,-0.7,1.0,-2.8,6.5,-8.1
